# Screens from PubChem BioAssay.
# Marburg entry inh = qHTS for inhibitors of binding or entry into cells for Marburg Virus; Marburg virus pseudotyped entry inhibition, cell reporter; control for the full effect not named in the record; about a third of the inactives were read at about 46 µM; Potency, µM (top dose mostly 37.8 µM), for inactives: top-dose activity change, negative = inhibition, usual class: inhibitors; 300,000 tested, 1.8% active; AID 540276, 2011; active = well fitted inhibition curve with a large enough effect; inconclusive = small, poorly fitted or top-dose-only effect, or effect the other way; inactive = flat fitted curve, though single readings scatter; tested in HEK293 cells; about a fifth of its hits are not listed in these tables; note: % is set by controls: 0 for no effect and ±100 for the full control effect; luciferase read-out
# Cruzain noTriton = qHTS Assay for Promiscuous and Specific Inhibitors of Cruzain (without detergent); Cruzipain (Trypanosoma cruzi), P25779; purified cruzain, Z-FR-AMC fluorescence, no detergent; Potency, µM, inactives show max response, negative = inhibition, hits mostly inhibitors; 200,000 tested, 2.3% active; AID 1476, 2009;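 note: plate controls were enzyme without inhibitor for no effect and buffer without enzyme for full effect; nearly all actives have a fitted effect of over 40% in size; top concentration of the series not given in the record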
# Target sequence (P25779 123-467 limits assumed): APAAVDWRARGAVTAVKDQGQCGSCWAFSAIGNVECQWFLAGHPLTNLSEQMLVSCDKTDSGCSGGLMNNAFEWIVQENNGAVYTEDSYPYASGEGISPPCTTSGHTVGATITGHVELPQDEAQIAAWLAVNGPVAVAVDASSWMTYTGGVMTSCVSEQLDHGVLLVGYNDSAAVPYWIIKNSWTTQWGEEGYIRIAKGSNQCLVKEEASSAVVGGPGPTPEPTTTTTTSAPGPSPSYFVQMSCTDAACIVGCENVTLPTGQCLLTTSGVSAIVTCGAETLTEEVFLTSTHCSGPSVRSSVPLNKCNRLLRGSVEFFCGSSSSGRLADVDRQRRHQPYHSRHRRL
#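 Detergent-free condition (0.00005% Triton X-100) in acetate buffer pH 5.5 with DTT. 1.5 nM enzyme and compound were pre-mixed 15 min, then 2 uM Z-FR-AMC substrate added; reaction progress from fluorescence change between first and third reads (60 s).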
# Lassa entry inh = qHTS for Inhibitors of binding or entry into cells for Lassa Virus | AID 540256, 2011 | Potency, µM (doses to about 37.9 µM), for inactives: top-dose activity change, negative = inhibition, actives largely listed as inhibitors | 300,000 tested, 1.2% active | Lassa virus pseudotype entry inhibition, cell reporter; control for the full effect not named in the record; active means well fitted inhibition curve with a large enough effect; inconclusive means small, poorly fitted or top-dose-only effect, or effect the other way; inactive means flat fitted curve, though single readings scatter; tested in HEK293 cells; note: % is set by controls: 0 for no effect and ±100 for the full control effect; nearly all actives have a fitted effect of over 50% in size; luciferase read-out
# SARS PLP yeast = qHTS of Yeast-based Assay for SARS-CoV PLP. S. cerevisiae expressing SARS-CoV PLpro, growth rescue; control for the full effect not named in the record. Potency, µM (highest dose often 32.9 µM), inactives show at the top dose activity, positive = growth rescue. 330,000 tested, 0.19% active. AID 485353, 2010; active means well fitted rising curve with a large enough effect; inconclusive means small, poorly fitted or top-dose-only effect; inactive means no such curve, though single readings can be large or run the other way; note: 0% is about no effect; nearly all actives have a fitted effect of over 55% in size; growth read by luminescence after 48 h
# NS1 function inh = qHTS Assay for Inhibitors of Influenza NS1 Protein Function. Potency, µM (doses to about 46.1 µM), for inactives: top-dose activity, positive = more growth. S. cerevisiae slowed by influenza A NS1, growth recovery by OD600. 270,000 tested, 0.4% active; active means well fitted rising curve with a large enough effect; inconclusive means small, poorly fitted or top-dose-only effect; inactive means no such curve, though single readings can be large or run the other way; note: nearly all actives have a fitted effect of over 50% in size
#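 Compounds were scored for reversing the slow growth caused by influenza A NS1 in S. cerevisiae, measured by optical density at 600 nm. Assay medium contained 2% galactose at pH 6.0; NS1-free yeast of the same strain were the positive control.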
# 2A StopGo = High Throughput Screening for Foot and Mouth Disease Virus Antivirals; human cells with a luciferase reporter of 2A StopGo recoding; control for the full effect not named in the record; 410,000 tested, 1.2% active; AID 1159524, 2015; Potency, µM (doses to about 57.9 µM), for the others: top-dose signal change, negative = less light; active = well fitted falling curve with a large enough effect; inconclusive = small, poorly fitted or top-dose-only effect; inactive = no such curve, though single readings can be large or run the other way; tested in HEK293T cells; note: % is set by controls: 0 for no effect and ±100 for the full control effect; nearly all actives have a fitted effect of over 45% in size; luciferase light after 4 h
# Cruzain Triton = qHTS Assay for Promiscuous and Specific Inhibitors of Cruzain (with detergent) | 200,000 tested, 0.43% active | Cruzipain (Trypanosoma cruzi), P25779 | AID 1478, 2009 | Potency, µM, for inactives: max response, negative = inhibition, actives largely listed as inhibitors | purified cruzain, Z-FR-AMC fluorescence, 0.01% Triton;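 note: plate controls were neutral wells for no effect and buffer without enzyme for full effect; nearly all actives have a fitted effect of over 40% in size; top concentration of the series not given in the record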
#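 In this qHTS format, compounds are incubated with 1.5 nM cruzain for 15 min at room temperature before 2 uM Z-FR-AMC is added. Release of AMC is followed at 360/450 nm, and progress is taken as the 60 s fluorescence difference.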
# RE007 growth inh = qHTS Assay for Inhibitors of the HIV-1 protein Vpr. 360,000 tested, 0.21% active. Potency, µM (titrated, usually from 92.2 µM), for the others: top-dose activity change, negative = less growth. S. pombe RE007 Vpr strain, BacTiter-Glo ATP luminescence, 24 h; control for the full effect not named in the record. AID 651644, 2012; active = well fitted falling curve with a large enough effect; inconclusive = small, poorly fitted or top-dose-only effect; inactive = no such curve, though single readings can be large or run the other way;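 note: % is set by controls: 0 for no effect and ±100 for the full control effect; nearly all actives have a fitted effect of over 50% in size; the assay follows cell death caused by Vpr and the record does not say whether a fall means rescue or toxicity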
#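 Fission yeast RE007 carrying one integrated HIV-1 vpr copy, seeded at OD 0.01 in PMG+AL medium with 23 nL pinned compound. Grown 24 h at 30 degrees; viability read by BacTiter-Glo luminescence after 5 min.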
# * marks the source's active call; other numbers are inactive results; ? = inconclusive; · = not tested or not shown; [ ] = dose if it differs, or a comment. Unless noted, calls come from the whole dose curve; as a rule, active = well fitted curve in the direction sought with a large enough effect; inconclusive = small, poorly fitted or top-dose-only effect, or another doubt; inactive = no such curve, though single readings can be large; an effect the other way counts as inactive or inconclusive. Potency is the fitted concentration of half-maximal effect.
Molecule	Marburg entry inh	Cruzain noTriton	Lassa entry inh	SARS PLP yeast	NS1 function inh	2A StopGo	Cruzain Triton	RE007 growth inh
COC(=O)c1c(NC(=O)C2CC=CCC2C(=O)O)sc(C)c1C (centres undefined)	11%	1%	-4%	7%	-26%	16%	-2.2%	-5%
CN(CC(=O)Nc1ccc(F)c(F)c1F)C(=O)CCCSc1nc2ccccc2[nH]1	?	·	14%	-4%	·	-8%	·	-5%
Cc1ccc(Nc2nc(C(=O)N3CCC(C(=O)NCCN4CCOCC4)CC3)cs2)cc1	10%	6%	?	-2%	-2%	34%[activator]	1.6%	10%
O=C(NC(=S)Nc1ccccc1Br)c1ccco1	2%[46.1 µM]	·	-27%	0%	-26%	24%	·	-3%
COc1ccc(-c2nc(SC(C)C(=O)NCC3CCCO3)n[nH]2)cc1 (centres undefined)	-22%	·	?	-1%	·	-15%	·	-15%
O=C(CSc1nc2nn(-c3ccccc3)c(=O)c-2c2n1CCCCC2)NCCc1ccccc1	-29%[46.1 µM]	·	·	0%	·	-3%	·	11%
O=C(OCC(=O)N1CCN(c2ccccc2)CC1)c1ccccc1NCCO	27%[46.1 µM]	·	7%	-7%	·	-20%	·	4%
O=C(/C=C/c1ccccc1)NC(=S)Nc1cccnc1	12µM*	-22%	-3%	0%	-14%	·	-2.6%	1%
COc1cc(CN(C)C)cc(C=O)c1O	-22%[46.1 µM]	·	-1%	2%	5%	-8%	·	3%
NC(N)=Nc1nc2ccccc2o1	0%[46.1 µM]	·	-3%	-2%	5%	23%	·	-1%
CCC(C)C(NC(=O)OC(C)(C)C)C(=O)NCc1ccco1 (centres undefined)	3%	3%	18%	21%	-2%	-27%	3.1%	12%
COC(=O)c1c(NC(=O)COc2ccc(Cl)cc2)sc(C)c1C	0%[46.1 µM]	-4%	15%[46.1 µM]	·	·	-6%	-3.1%	·
C=CCn1cccc(C(=O)Nc2ccc(OCC)cc2)c1=O	-48%[46.1 µM]	·	?	-4%	·	0%	·	-4%
CCN(CC)CCN(C(=O)c1cccc(N2C(=O)CCC2=O)c1)c1nc2cc3c(cc2s1)OCO3	4%[46.1 µM]	·	9%[46.1 µM]	3%	·	2%	·	-3%
O=C1CC(N2CCN(c3ccccc3Cl)CC2)C(=O)N1c1cccc(F)c1 (centres undefined)	-14%	5%	-13%	-30%	-29%	-26%	2.2%	35µM*
CCOC(=O)CSc1ccc(C(=O)NCCCN2CCOCC2)cc1[N+](=O)[O-]	·	·	·	0%	6%	-15%	·	-3%
CC(=O)c1cc(F)c(N2CCN(C(=O)C(C)(C)C)CC2)cc1C	-13%	-4%	-11%	-5%	-9%	0%	-2.1%	-14%
O=C(NC1CCCCCCC1)c1cc([N+](=O)[O-])ccc1Cl	·	·	·	1%	16%	-10%	·	5%
COC(=O)Cn1c(=NC(=O)c2nc3ccccc3s2)sc2cc(S(N)(=O)=O)ccc21	13%	-2%	0%	-6%	-2%	0%	-4.4%	5%
Cc1nc(NC(=O)c2ccccc2)sc1-c1csc(NCc2ccccc2)n1	?	?	-24%	-8%	?	-17%	3.7%	-1%

# Additional compounds.
Molecule	Marburg entry inh	Cruzain noTriton	Lassa entry inh	SARS PLP yeast	NS1 function inh	2A StopGo	Cruzain Triton	RE007 growth inh
Cc1ccc(S(=O)(=O)Cc2cc(-c3ccc(Cl)cc3)no2)cc1	?	·	-14%[46.1 µM]	0%	-7%	-5%	·	-4%
Cc1ccc(C(=O)OCC(=O)Nc2ccc3[nH]c(=O)[nH]c3c2)cc1S(=O)(=O)N1CCOCC1	?	·	-12%[46.1 µM]	2%	·	15%	·	-4%
CCCNC(=O)C(Cc1ccccc1)NS(=O)(=O)c1cccc2nsnc12 (centres undefined)	23%	0%	6%	7%	-14%	38%[activator]	-3.4%	10%
O=C(CCNC(=O)c1ccccc1Cl)N/N=C\c1ccc(O)cc1	·	·	·	-7%	-75%	-16%	·	-6%
COc1cccc(-c2cc(C(F)(F)F)n3ncc(C(=O)NCC4CCCO4)c3n2)c1 (centres undefined)	?	?	?	9%	-13%	28µM*	-2.4%	2%
CCN1CCN(Cc2ccc3c(c2)Cc2ccccc2-3)CC1	-1%	-10%	·	-4%	-2%	·	0.0%	·
CCNC(=O)CC1C(=O)N(c2ccccc2)C(=O)N1Cc1ccc(OC)cc1 (centres undefined)	?	2%	9%	-3%	-4%	0%	8.6%	7%
CC(C)COc1ccc(CNC(=S)Nc2ccccc2)cc1Cl	?	·	-12%[46.1 µM]	-3%	-2%	-7%	·	4%
O=C(O)c1ccc(COc2c(F)c(F)cc(F)c2F)cc1	19%	-16%	7%	-21%	-59%	13%	-0.1%	-8%
O=C1c2cccnc2C(Nc2ccc(S(=O)(=O)N3CCCCC3)cc2)N1Cc1ccccc1 (centres undefined)	1%	?	-2%	-2%	-47%	2%	-5.7%	14%
O=C(Cc1ccccc1)N1CCN(CC2CC3C=CC2C3)CC1 (centres undefined)	-5%	-8%	-15%	-7%	3%	-13%	1.0%	12%
O=C(CNC(=S)N(CCCN1CCOCC1)Cc1cccs1)NCCN1CCOCC1	?	-24%	?	-5%	-1%	2%	1.1%	-8%
C=CCNc1nc2c(c(=O)n(C)c(=O)n2C)n1Cc1ccc(F)cc1	·	-3%	·	4%	-8%	?	1.9%	-8%
Cn1c(N)c(C(=O)CSc2nnc(-c3ccccc3F)n2N)c(=O)n(C)c1=O	6%[46.1 µM]	·	2%	1%	2%	22%	·	11%
CCCN(CCC)C(=O)C1c2ccccc2Oc2ccccc21	-13%	-3%	6%	-5%	-16%	-27%	-3.1%	-15%
Cc1ccc(C(=O)Cn2nnc3c(sc4nc5c(c(-c6ccccc6)c43)CCC5)c2=O)cc1	-4%	20µM*	16%	-6%	22%	8%	-3.0%	8%
O=C(NCc1ccccc1)C(c1ccncc1)N(C(=O)c1csnn1)C1CC1 (centres undefined)	20%[46.1 µM]	-11%	-10%	-4%	-1%	-18%	-0.7%	-11%
O=C(O)CC(NS(=O)(=O)c1ccc(Cl)s1)c1ccccc1 (centres undefined)	·	-17%	?	·	·	3%	0.2%	·
O=C(NCc1cccs1)c1ccncc1	1%	0%	16%	6%	9%	2%	1.6%	7%
COc1ccc(C)cc1NC(=O)CCCN1C(=O)CN(C)C1=O	9%	·	·	-18%	·	10%	·	3%

# Later entries
Molecule	Marburg entry inh	Cruzain noTriton	Lassa entry inh	SARS PLP yeast	NS1 function inh	2A StopGo	Cruzain Triton	RE007 growth inh
Cc1cc(=O)[nH]c(SCC(=O)Nc2nnc(CC(C)C)s2)n1	?	-4%	2%	2%	13%	?	-2.6%	-3%
CCN(C/C=C/c1ccccc1OC)Cc1ccccc1	?	·	-5%[46.1 µM]	-2%	-18%	49%[activator]	·	-2%
COc1cc(OC)c(C(=O)NCc2ccc3c(c2)OCO3)cc1OC	-14%[46.1 µM]	·	23%[46.1 µM]	3%	-33%	0%	·	2%
Cc1ccc(S(=O)(=O)N2CCN(CN3C(=O)CC4(CCCC4)C3=O)CC2)cc1	14%	·	-9%[46.1 µM]	-5%	·	1%	·	8%
CC1(C(=O)NC2CCCC2)CCC(=O)N1CCC1=CCCCC1 (centres undefined)	5%[46.1 µM]	0%	2%	2%	5%	-14%	2.4%	10%
O=C(COC(=O)c1ccccc1Nc1ccccc1)Nc1ccccc1	-1%	?	-15%	11%	-5%	-27%	-1.8%	4%
CC(=O)N(Cc1cc2cc(C)ccc2[nH]c1=O)c1cccc(C)c1C	·	·	·	3%	11%	?	·	-2%
CN=C(Nc1ccc(C(=O)OC)cc1)SC1CC(=O)N(c2ccccc2F)C1=O (centres undefined)	?	3%	-15%	-2%	4%	?	-2.9%	11%
CCOC(=O)c1cc(-c2ccccc2)n(CCCC(=O)Nc2ccccc2C)c1C	·	11%	?	·	·	-9%	-5.6%	·
OC(COc1ccccc1)CN1CCOCC1 (centres undefined)	11%	-9%	12%	5%	7%	·	1.6%	-13%
Cc1csc(NC(=O)CSc2ccc3nnc(CCNS(=O)(=O)c4ccccc4)n3n2)n1	16%	3%	9%	19%	7%	-9%	1.4%	10%
Cc1nn(CC(=O)N2CCN(c3cccc(C(F)(F)F)c3)CC2)c(=O)c2cc3sccc3n12	3%[46.1 µM]	-1%	·	·	·	-8%	-0.4%	·
CCOc1ccc2c(c1)C(C)=CC(C)(C)N2C(=O)Nc1ccccc1F	?	8%	16%	2%	-10%	-1%	-2.7%	8%
Cc1[nH]c(=O)c(C(=O)c2ccccc2O)cc1C(=O)O	?	·	4%	0%	8%	14%	·	11%
Cc1cccc(-n2c(Cc3ccccc3)n[nH]c2=S)c1	?	·	-6%[46.1 µM]	-1%	3%	-3%	·	21%
CCc1cc2c(cc3c(=O)n(CCCC(=O)NCc4ccccc4Cl)nc(CC)n32)s1	-10%[46.1 µM]	10%	·	·	·	6%	-2.3%	·
O=C(Nc1ccc(N2CCOCC2)cc1)c1cccnc1	-1%	12%	?	13%	-4%	21%	-2.6%	-2%
COc1ccc(S(=O)(=O)N2CCC(C(=O)c3ccc4c(c3)OCCO4)CC2)cc1	-28%	0%	-27%	9%	?	-15%	-4.4%	5%
O=C(N/N=C/c1ccccc1F)c1cccc(NC(=O)c2ccccc2Cl)c1	?	·	15%[46.1 µM]	-4%	-34%	15%	·	2%
O=C(NCc1cccnc1)Nc1ccc(F)cc1F	19%	3%	9%	·	-18%	20%	-0.1%	-6%
Cc1c(Cl)cccc1NC(=O)c1cc2sccc2n1Cc1ccc(F)cc1	?	?	-13%[46.1 µM]	·	·	-27%	-6.7%	·
CC(C)c1ccc(OCc2ccc(C(=O)N3CCCC3)o2)cc1	10%[46.1 µM]	·	-28%[46.1 µM]	-11%	-51%	5%	·	2%
Cc1cc(C(=O)NNC(=O)NC(C)C)no1	6%	·	10%	1%	1%	-9%	·	-11%

# Not a hit list; about 4.7% have a hit in one of these screens.
